Mtb bLac sens = beta-lactam sensitization of Mtb H37Rv; M. tuberculosis H37Rv growth with meropenem, percent inhibition; hits of this screen are not shown here; inhibition, % at 25 µM; 330,000 compounds, 0.27% hits;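 active = about 74% or more and at least 40 points above the plate without the antibiotic, then above 30% in a dose series; inconclusive = first-round hits that could not be retested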;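 note: growth measured after seven days incubation then overnight dye step; 0% = bacteria only wells and 100% = bacteria with antibiotic; twin plates without the antibiotic show which effects depend on it; some results filed as inactive read as strong as hits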
RecA splice inh = Mtb RecA intein splicing inhibition | 290,000 compounds, 0.75% hits | cell-free RecA intein splicing, fluorescence | inhibition, %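 (about 9 µM by stock and volumes)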 | P9WHJ3; in the data active = inhibition above about 30%; inconclusive = no clear call, values can overlap the other calls;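 note: 0% = vehicle wells and 100% = reference inhibitor control wells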
Target sequence (P9WHJ3 whole entry, looked up, canonical isoform): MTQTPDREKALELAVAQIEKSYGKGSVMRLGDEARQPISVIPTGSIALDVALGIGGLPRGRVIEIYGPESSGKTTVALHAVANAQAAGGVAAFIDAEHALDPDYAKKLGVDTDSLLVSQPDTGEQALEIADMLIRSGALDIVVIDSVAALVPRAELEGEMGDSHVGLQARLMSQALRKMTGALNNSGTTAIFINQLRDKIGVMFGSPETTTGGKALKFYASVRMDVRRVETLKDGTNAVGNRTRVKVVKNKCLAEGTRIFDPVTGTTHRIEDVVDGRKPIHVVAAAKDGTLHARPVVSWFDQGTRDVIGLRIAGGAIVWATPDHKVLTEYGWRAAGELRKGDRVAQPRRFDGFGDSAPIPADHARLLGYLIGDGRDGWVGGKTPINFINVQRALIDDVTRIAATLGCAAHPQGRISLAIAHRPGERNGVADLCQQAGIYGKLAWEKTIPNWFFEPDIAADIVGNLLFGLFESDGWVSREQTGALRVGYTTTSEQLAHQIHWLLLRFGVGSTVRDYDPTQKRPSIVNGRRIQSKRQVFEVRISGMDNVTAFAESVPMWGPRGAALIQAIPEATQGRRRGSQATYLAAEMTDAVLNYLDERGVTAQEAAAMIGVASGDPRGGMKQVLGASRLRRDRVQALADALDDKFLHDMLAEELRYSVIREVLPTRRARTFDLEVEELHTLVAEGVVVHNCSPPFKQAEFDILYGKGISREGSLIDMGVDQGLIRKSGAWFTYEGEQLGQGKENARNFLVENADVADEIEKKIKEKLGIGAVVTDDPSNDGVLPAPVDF
YopH inh = YopH (Yersinia) phosphatase inhibition; AID 898; fluorescence Ex485/Em525; inhibition, %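 (about 10 µM by stock and volumes)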; 140,000 compounds, 0.16% hits;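 active = inhibition of 50% or more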;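 note: controls were vehicle for no effect and minimum signal wells for full effect; inactives centre near -20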
Mtb H37Rv = M. tuberculosis H37Rv growth inhibitors, H37Rv strain (AID 1626). M. tuberculosis H37Rv growth inhibition; higher % means a stronger effect. one-dose inhibition, % at 10 µM; IC50 in µM for titrated hits. 220,000 compounds, 0.95% hits;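 active = confirmed in a dose series; inconclusive = inhibition above 80% but not taken into the dose series; inactive = below 80% or under 30% at every dose of the series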;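 note: bacteria incubated seven days before Alamar blue readout; 0% = bacteria only wells and 100% = bacteria with antibiotic wells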
Arbovirus anti = antivirals against arbovirus infection. arbovirus infection cell-based antiviral screen. inhibition, % at 10 µM. 200,000 compounds, 0.37% hits;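 active = inhibition from about 30%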;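 note: bluetongue infection of BSR cells; cell survival read as ATP light after 72 h; 0% = infected wells without compound and 100% = uninfected wells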
Arbovirus anti repeat = recorded beside Arbovirus anti, whose call it bears; inhibition, %; measured here: 10K subset replicate screen; many hits read low in the repeat;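 first of two repeat runs on a subset; 0% = infected and 100% = uninfected wells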
* = called active by the depositor; ? = inconclusive; . = no result given. Some of the compounds tested; count on the stated rates, not on these rows.

SMILES | Mtb bLac sens | RecA splice inh | YopH inh | Mtb H37Rv | Arbovirus anti | others
CC1CCN(C(=O)Cn2cc(SCC(=O)NCC3CCCO3)c3ccccc32)CC1 (centres undefined) | 2 | -0.6 | . | 2% | 13
Cc1nc(N2CCN(c3ccccn3)CC2)c2c(C)c(C(=O)N3CCN(c4ccc(F)cc4)CC3)sc2n1 | 92 | 12 | . | . | .
COc1ccc(-n2nnnc2SCC(=O)Nc2cccc(O)c2)cc1 | -2 | 2.2 | . | . | .
CSc1ncccc1C(=O)NC1CCCCCC1 | 5 | 0.5 | . | 7% | 10
CN(Cc1ccccc1)c1nc(-c2cccc([N+](=O)[O-])c2)nc2ccccc12 | 8 | 6.4 | 1 | 10% | -3
CCc1ccc(C(C(=O)NCCOC)N(C(=O)Cn2nnc3ccccc32)c2cccnc2)cc1 (centres undefined) | 1 | -0.2 | -52 | -9% | 17
Cc1ccc(-c2cc(C(=O)N/N=C/c3c(C)nn(-c4ccccc4)c3C)n[nH]2)s1 | . | 5.7 | -29 | 67% | -9
COc1ccc(C2=NOC(Cn3nc(C(=O)NCc4ccc(C)cc4)cc3-c3ccccc3)C2)cc1 (centres undefined) | -6 | -1.3 | . | . | .
CCc1ccc(-c2csc(NC(=O)COC(=O)CCc3nc4ccccc4s3)n2)cc1 | 3 | -0.6 | 6 | 5% | -20
COc1ccc2[nH]cc(CCN=C(N)N)c2c1 | -4 | -0.9 | . | 3% | 5

Brought forward from above: 4 compounds, followed by the next part.
SMILES | Mtb bLac sens | RecA splice inh | YopH inh | Mtb H37Rv | Arbovirus anti | others
Cc1ccc(-c2cc(C(=O)N/N=C/c3c(C)nn(-c4ccccc4)c3C)n[nH]2)s1 | . | 5.7 | -29 | 67% | -9
COc1ccc(C2=NOC(Cn3nc(C(=O)NCc4ccc(C)cc4)cc3-c3ccccc3)C2)cc1 (centres undefined) | -6 | -1.3 | . | . | .
CCc1ccc(-c2csc(NC(=O)COC(=O)CCc3nc4ccccc4s3)n2)cc1 | 3 | -0.6 | 6 | 5% | -20
COc1ccc2[nH]cc(CCN=C(N)N)c2c1 | -4 | -0.9 | . | 3% | 5
COc1cccc2c1OC[C@@H](CO)[C@H]2N(C)C(=O)Nc1ccccc1 | -6 | -1.6 | -42 | -1% | 4
Cc1ccnc(NCc2ccccc2O)c1 | 2 | 1.4 | . | . | .
Cc1ccccc1OCC(=O)O/N=C(\N)Cc1cccs1 | 14 | 7.7 | -29 | 18% | 2
CC1CC(C)CN(c2oc(-c3ccccc3Cl)nc2C#N)C1 (centres undefined) | -7 | 1.7 | -29 | 5% | 1
CC(C)(C)OC(=O)NC(CCCCNC=O)C(=O)O (centres undefined) | -4 | -0.1 | 21 | -7% | 4
O=C(CS(=O)(=O)c1ccccc1)N1CCCCCC1 | 4 | -1.0 | 17 | -6% | 1
N#CCCN1CCN(Cc2cc(-c3ccccc3)ccc2O)CC1 | 1 | 3.6 | -8 | -4% | 13
C[C@@H](C(=O)NCc1ccco1)N1C(=O)N2CCc3c([nH]c4ccccc34)[C@@]2(C)C1=O | 1 | 0.5 | . | . | .
CCOC(=O)c1c(C)c(C(=O)N2CCc3ccccc3C2)c(C)n1CC | 18 | 7.7 | -1 | 6% | -24
C/C(=N\Nc1ccc(F)cc1F)c1ccccc1O | 86 | . | . | ? | -21
O=C(N/N=C/c1cc(Br)c(Br)s1)c1ccncc1 | 99 | 0.4 | . | ? | -22
Cc1cc(NC(=O)CSc2nc(-c3cccs3)cc(C(F)(F)F)n2)no1 | 3 | -0.3 | -29 | 2% | -22
COc1ccc(CC(=O)Nc2ccc3c(c2)OCO3)cc1S(=O)(=O)N1CCOCC1 | -2 | 4.0 | -7 | -8% | 4
O=C(NCc1ccc(F)cc1)C(c1ccccc1)N(C(=O)c1csnn1)c1ccccc1 (centres undefined) | 8 | 0.5 | . | . | .
CCOC(=O)c1c(NC(=O)C2COc3ccccc3O2)sc(C)c1C (centres undefined) | 9 | -0.8 | -25 | -4% | 9
Cc1ccc(C(=O)Nc2ccccc2C(=O)NCC2CCCO2)cc1 (centres undefined) | 4 | -4.6 | . | . | .
CCOC(=O)C1C(=O)C=C(c2cccs2)CC1c1ccccc1C (centres undefined) | -4 | 0.6 | -10 | 3% | 2
CC(=O)NS(=O)(=O)c1ccc(NC(=O)c2cc(-c3ccc(C)c(C)c3)nc3ccccc23)cc1 | 96 | . | -76 | 14% | 10
N#Cc1cc(C(=O)c2cc(Cl)ccc2O)cn(-c2ccccc2)c1=O | 3 | -3.4 | -26 | -3% | 9
CC(=O)NCc1ccc(C(=O)CSc2nnc(-c3ccncc3)n2Cc2ccccc2)o1 | -5 | 1.5 | -1 | -11% | 1
COc1ccc(C(=O)Cn2nnc(-c3ccccc3NC(=O)c3ccco3)n2)cc1 | -3 | 0.5 | -23 | -7% | -8
O=[N+]([O-])c1ccccc1/C=N/N1CCN(c2ccncc2S(=O)(=O)N2CCCCC2)CC1 | 10 | 7.5 | -25 | 0% | 21
O=C(NNC(=O)c1ccccc1O)c1ccc(NS(=O)(=O)c2ccc(F)c(F)c2)cc1 | 1 | 15 | . | . | .
CCCCn1c(N)c(N(CC)C(=O)c2cc(Br)ccc2Cl)c(=O)[nH]c1=O | 12 | 0.9 | . | -5% | 7
CS(=O)(=O)c1ccc(Cl)c(NC(=O)CSc2n[nH]c(N)n2)c1 | -18 | 0.6 | . | . | .
NCCCCCc1nnc(SCc2ccc(Cl)cc2Cl)o1 | -15 | -0.6 | 5 | -3% | -10
Cc1ccccc1-c1ccnc2[nH]n(-c3ccccc3)c(=O)c12 | -1 | -2.4 | . | . | .
CCOC(=O)C1CCCN(c2c(NCCc3cccc(C)c3)c(=O)c2=O)C1 (centres undefined) | -3 | -4.3 | . | -10% | .
CCCCNC(=O)c1onc(CSc2cccc(OC)c2)c1C(=O)NCCCC | 6 | 1.8 | . | 7% | .
COC(=O)c1[nH]c2cc(OC)c(OC)cc2c1NC(=O)c1cccc(OC)c1 | 20 | -22 | -21 | 6% | -25

Retrieved one by one from above, 4 records:
SMILES | Mtb bLac sens | RecA splice inh | YopH inh | Mtb H37Rv | Arbovirus anti | others
Cc1ccc(C(=O)Nc2ccccc2C(=O)NCC2CCCO2)cc1 (centres undefined) | 4 | -4.6 | . | . | .
C/C(=N\Nc1ccc(F)cc1F)c1ccccc1O | 86 | . | . | ? | -21
Cc1ccccc1OCC(=O)O/N=C(\N)Cc1cccs1 | 14 | 7.7 | -29 | 18% | 2
CCCCNC(=O)c1onc(CSc2cccc(OC)c2)c1C(=O)NCCCC | 6 | 1.8 | . | 7% | .

Continuation:
SMILES | Mtb bLac sens | RecA splice inh | YopH inh | Mtb H37Rv | Arbovirus anti | others
O=C(c1cccnc1)N1CCN(C/C=C/c2ccccc2)CC1 | 1 | -0.3 | . | -6% | 2
COc1ccc(C(=O)Nc2ccc(S(=O)(=O)N3CCCC3)cc2)cc1[N+](=O)[O-] | -9 | -1.9 | . | . | .
O=C(NCCS(=O)(=O)c1ccc(Br)cc1)c1ccc(F)cc1 | -15 | -0.9 | . | . | .
COc1ccc(Cc2nn3c(-c4cc(OC)c(OC)c(OC)c4)nnc3s2)cc1 | -4 | 0.4 | 6 | -10% | -5
CCOC(=O)C(NCCCO)c1ccccc1 (centres undefined) | 8 | -0.9 | -21 | -12% | 7
COc1ccc(-n2c(CN3CCC(C)CC3)nc3ccc([N+](=O)[O-])cc3c2=O)c(OC)c1 | -5 | -3.6 | . | -3% | -3
COC(=O)c1ccc2c(=O)n(CCN3CCOCC3)c(SCC(=O)Nc3ccccc3Cl)nc2c1 | 8 | 0.3 | . | . | .
Cc1ccc(-c2nnc(-c3ccccc3)c(N3CCOCC3)n2)cc1 | 1 | 1.9 | -30 | 0% | -15
CC(C)CCN(C(=S)Nc1cccc(F)c1)C(C)c1cccs1 (centres undefined) | 0 | 9.6 | . | -5% | 9
O=c1c2ccccc2nc2n1C(CSCc1cccc(C(F)(F)F)c1)CS2 (centres undefined) | -7 | -1.0 | -20 | 1% | -3
COc1cccc(CN(Cc2ccco2)C(c2ccc(F)cc2)c2nnnn2C(C)(C)C)c1 (centres undefined) | -13 | 24 | -46 | -11% | -7
COc1ccc(CO/N=C/c2c(C)[nH]c(=O)[nH]c2=O)cc1 | -8 | -0.4 | -34 | -4% | 3
Cc1ccc(S(=O)(=O)NCCC(=O)N2CCCCCCC2)cc1 | -6 | 5.2 | . | . | .
CCOC(=O)C1CCCN(Cc2c(F)cccc2Cl)C1 (centres undefined) | 1 | -3.2 | 7 | 4% | 0
CC(=O)c1ccc(OCc2ccc(C(=O)c3ccccc3)cc2)cc1 | 2 | -6.8 | . | 6% | 7
COC1CCN(C(=O)c2ccc(OC3CCN(CCc4ccccc4)CC3)cc2)CC1 | -4 | -2.8 | . | -2% | -3
COC(=O)CCC(=O)N1CCCC(C(=O)c2cc(F)ccc2F)C1 (centres undefined) | 2 | -1.1 | . | . | .
CCOc1ccccc1N(CC(=O)N/N=C/c1cc(Br)ccc1OC)S(C)(=O)=O | 2 | -2.8 | -24 | -8% | -5
C/C(=N/OC(=O)N(C)C)c1ncc(C(F)(F)F)cc1N1CCOCC1 | -8 | 0.7 | 7 | -2% | 3
COc1ccc(-c2ccc(=O)n(Cc3ccc([N+](=O)[O-])cc3)n2)cc1 | -8 | -0.5 | . | -2% | 7

Continued; the last three above are carried over.
SMILES | Mtb bLac sens | RecA splice inh | YopH inh | Mtb H37Rv | Arbovirus anti | others
CCOc1ccccc1N(CC(=O)N/N=C/c1cc(Br)ccc1OC)S(C)(=O)=O | 2 | -2.8 | -24 | -8% | -5
C/C(=N/OC(=O)N(C)C)c1ncc(C(F)(F)F)cc1N1CCOCC1 | -8 | 0.7 | 7 | -2% | 3
COc1ccc(-c2ccc(=O)n(Cc3ccc([N+](=O)[O-])cc3)n2)cc1 | -8 | -0.5 | . | -2% | 7
CCOC(=O)C(CC)n1nc(C)n2c(cc3sccc32)c1=O (centres undefined) | 0 | 0.3 | -39 | 3% | 5 | Arbovirus anti repeat=-5
O=C(Cn1nnc(-c2ccc(Cl)cc2)n1)NCC1CCCCC1 | 11 | . | -35 | 4% | 0
COc1ccc(NC(=O)N[C@@H](Cc2ccccc2)C(=O)NN)cc1 | -5 | 0.4 | . | -5% | .
COc1ccc(-c2nc(N)n(C(C)=O)n2)cc1 | 5 | 0.6 | -13 | -7% | 4
Cc1ccc(N2C(=O)[C@@H]3Cc4ccccc4CN3C2=O)cc1 | 5 | -0.3 | -47 | 1% | -5
CC12CN3CC(C)(CN(C1)C3c1ccc(F)cc1)C2 (centres undefined) | 5 | -0.2 | . | 13% | 10
COc1ccc(-c2csc(NC(=O)CN3C(=O)NC4(CCCC4)C3=O)n2)c(OC)c1 | -2 | -6.6 | . | . | .
CCOC(=O)C1=NNC2(c3ccc(C)cc3)C(=O)N(c3ccccc3)C(=O)C12 (centres undefined) | -8 | 0.6 | . | -16% | .
COc1ccc(-n2c(SCC(=O)NCC3CCCO3)nc3c([nH]c4ccccc43)c2=O)cc1 (centres undefined) | 6 | -3.6 | . | . | .
Cc1ccc(C)c(-c2ccc(=O)n(Cc3cccc(Br)c3)n2)c1 | 54 | 30* | . | . | .
O=C(CCN1C(=O)S/C(=C\c2ccccc2)C1=O)NCCCn1ccnc1 | 0 | 1.2 | . | . | .
CCn1c(SCC(=O)N2CCCCC2C)nnc1-c1ccc(S(=O)(=O)N2CCN(C)CC2)cc1 (centres undefined) | 0 | 0.3 | -6 | -4% | 0
COc1cccc(NC(=O)Nc2ccc(Br)cn2)c1 | -2 | 0.1 | . | 2% | .
CC(=O)NC(CCS(C)(=O)=O)C(=O)Nc1cccc(C)c1 (centres undefined) | 2 | 9.5 | -25 | 4% | 4 | Arbovirus anti repeat=-2
Cc1nc(NC(=O)/C=C/c2ccccc2)sc1C(=O)NCCO | 3 | -3.5 | . | 0% | -6
COc1cc(C2=Nc3c(c(C)nn3-c3ccccc3)P(=O)(N3CCOCC3)O2)cc(OC)c1OC (centres undefined) | -7 | -0.8 | -134 | 2% | 2 | Arbovirus anti repeat=0
CCNc1ccc(C(=O)OC(C(=O)NC(N)=O)C(C)C)cc1[N+](=O)[O-] (centres undefined) | -5 | -1.6 | . | 22% | -2
COc1ccc(S(=O)(=O)N(C)CC(=O)NCCCN2CCOCC2)cc1Cl | -4 | 1.4 | . | . | .
COc1ccc(OC)c(C2SCCN2S(C)(=O)=O)c1 (centres undefined) | 4 | -0.9 | -12 | 1% | 9
